# Mtb H37Rv = Mycobacterium tuberculosis H37Rv growth inhibition, putative kinase inhibitor library, confirmatory dose response (AID 2842) | 5.2% of 24,000 active | inhibition, % at 10 µg/mL, or IC90 in µg/mL where a hit was titrated | M. tuberculosis H37Rv growth inhibition; higher % means a stronger effect; some inactives read as strong as hits;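 active means confirmed in a dose series; inconclusive means mostly over 85% at the one dose but not retested; inactive means below 85% or not confirmed; about a fifth of its hits are not listed in these tables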;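 further: bacteria incubated one week before Alamar blue readout; 0% = bacteria only wells and 100% = bacteria with high antibiotic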
# Starred values were filed as active, the others as inactive; ? = inconclusive. Not all compounds are listed, so the mix of outcomes need not match the whole.
# Preview:
No.	canonical_smiles	Mtb H37Rv
1	O=C(NCc1ccc(F)cc1)C(=O)Nc1cc2c3c(c1)CCN3C(=O)CC2	-9.7%
2	CCOc1ccc(C(=O)Nc2nc3ccc4nc(SC)sc4c3s2)cc1	-3.3%
3	Clc1ccc(-n2ncc3c(NCc4cccnc4)ncnc32)cc1Cl	-8.9%
4	COc1ccc(CCC(=O)Nc2c(C(N)=O)oc3ccccc23)cc1	-7.8%
5	CCOc1ccc(C(=O)Nc2c(N)nc(SCC(=O)Nc3ccc(F)cc3)[nH]c2=O)cc1	-8.1%
6	CNC(=S)NCCc1cc2ccc(C)cc2[nH]c1=O	-0.7%
7	COC(=O)c1c(NC(=O)C(c2ccccc2)c2ccccc2)sc2c1CC(C)(C)NC2(C)C	6.07µg/mL*

# The listing, from the first entry:
No.	canonical_smiles	Mtb H37Rv
1	O=C(NCc1ccc(F)cc1)C(=O)Nc1cc2c3c(c1)CCN3C(=O)CC2	-9.7%
2	CCOc1ccc(C(=O)Nc2nc3ccc4nc(SC)sc4c3s2)cc1	-3.3%
3	Clc1ccc(-n2ncc3c(NCc4cccnc4)ncnc32)cc1Cl	-8.9%
4	COc1ccc(CCC(=O)Nc2c(C(N)=O)oc3ccccc23)cc1	-7.8%
5	CCOc1ccc(C(=O)Nc2c(N)nc(SCC(=O)Nc3ccc(F)cc3)[nH]c2=O)cc1	-8.1%
6	CNC(=S)NCCc1cc2ccc(C)cc2[nH]c1=O	-0.7%
7	COC(=O)c1c(NC(=O)C(c2ccccc2)c2ccccc2)sc2c1CC(C)(C)NC2(C)C	6.07µg/mL*
8	O=C(/C=C/c1cccs1)Nc1nc(-c2ccc3c(c2)CCCC3)cs1	48.9%
9	COc1ccc(N2CC(c3nc4ccccc4n3Cc3ccccc3)CC2=O)cc1 (configuration not stated)	7.9%
10	Cc1ccc2cc(CCNC(=O)c3ccc(Br)cc3)c(=O)[nH]c2c1	-7.3%
11	CSc1nnc(NC(=O)C2CCCCC2)s1	2.5%
12	O=C(c1c(F)cccc1F)N1CCN=C1SCc1cccnc1	9.1%
13	CS(=O)(=O)c1ccc(CC(=O)Nc2sc3c(c2C(N)=O)CCCC3)cc1	-0.1%
14	Nc1nc(SCC(=O)N2CCCc3ccccc32)[nH]c(=O)c1NC(=O)c1ccco1	-6.6%
15	O=C(CSc1nnc(NC(=O)Cc2cccs2)s1)Nc1nccs1	-0.4%
16	N#Cc1cccc(N=c2oc3ccc(Br)cc3cc2C(=O)Nc2ccccc2)c1	-4.8%
17	CCN(CC)S(=O)(=O)c1ccc(C(=O)Nc2nc(-c3ccc(C)cc3C)cs2)cc1	64.3%
18	O=C1CN=C(c2ccc(F)cc2)c2cc(F)ccc2N1	-5.2%
19	COc1ccc(Cl)c(NC(=O)c2sc3nc(-c4cccnc4)ccc3c2N)c1	-6.7%
20	Cc1ccc(C)c(-c2nnc(NC(=O)c3ccc(Br)s3)o2)c1	6.75µg/mL*
21	Cn1c(=O)c2c(SCC(=O)NCC3CCCO3)ccnc2n(C)c1=O (configuration not stated)	0.1%
22	Cc1ccc(-c2nnn3c2nc(NCc2ccc4c(c2)OCO4)c2ccccc23)cc1	-5.4%
23	O=C(/C=C\c1ccc2c(c1)OCO2)Nc1c(C(=O)Nc2ccc(F)cc2)oc2ccccc12	1.2%
24	COc1cccc(-c2nnc(NC(=O)CCS(=O)(=O)c3ccc(C)cc3)o2)c1	64.1%
25	CC(=O)Nc1cccc(NC(=O)CSc2nncc(=O)n2N)c1	2.9%
26	CCCCSc1nc2c(c(=O)[nH]1)C(c1cccnc1)C1=C(CCCC1=O)N2 (configuration not stated)	-1.2%
27	COc1cc2c(cc1OC)C(C)N(c1ncnc(N)c1[N+](=O)[O-])CC2 (configuration not stated)	-4.9%
28	Cc1cc(NC(=O)CSc2cn(C)c3ccccc23)no1	57.2%
29	Cc1cc(C)n(C(=O)c2ccc([N+](=O)[O-])c(C)c2)n1	-3.5%
30	COc1ccc(CC(=O)Nc2nnc(-c3ccc(Br)cc3)s2)cc1	1.5%
31	CCOC(=O)c1nn(-c2ccc(Cl)cc2)c(=O)c2c(NC(=O)c3ccc(Cl)c([N+](=O)[O-])c3)scc12	0.8%
32	O=C(Nc1nnc(-c2cc(Cl)ccc2Cl)o1)c1ccc(S(=O)(=O)N2CCCC2)cc1	25.6µg/mL*
33	CCS(=O)(=O)c1ccc(C(=O)Nc2nnc(-c3ccc(F)cc3)o2)cc1	72.9%
34	CCCC(CCC)C(=O)Nc1cc(C)c2c(=O)oc3ccccc3c2n1	1.9%
35	O=C(Nc1nnc(C2=COCCO2)o1)c1ccc(Cl)cc1	?
36	O=C(c1ccc2c(c1)OCO2)N1CCN=C1SCc1cccc(C(F)(F)F)c1	-8.4%
37	COc1ccc2c(C)cc(SCC(=O)Nc3c(C)cccc3C)nc2c1	3.2%
38	COc1cccc2cc(-c3cc(=O)oc4cc(OC(=O)N(C)C)ccc34)c(=O)oc12	-10.9%
39	CCCCCCCCn1c(=O)[nH]c2ccccc21	13.6%
40	COc1ccccc1OCC(=O)N1CCN(c2ncnc3c2nnn3-c2cccc(F)c2)CC1	-0.2%
41	O=C(NNc1nc2c(F)cc(F)cc2s1)c1nc2ccccc2s1	21.8µg/mL*
42	CCCCCCCn1c(SC/C=C(\C)Cl)nc2c1c(=O)[nH]c(=O)n2C	15.3%
43	O=C(NCc1ccccc1)c1cc2cc([N+](=O)[O-])ccc2s1	9.8%
44	NC(=O)Cn1cnc2c(nnn2Cc2ccccc2)c1=O	-8.1%
45	Cn1cnnc1SCc1cc(=O)c(OCc2ccc(Cl)cc2)co1	-3.3%
46	COc1ccc(-n2ccnc(SCC(=O)Nc3cc(C)cc(C)c3)c2=O)cc1	11.0%
47	O=C(Nc1nnc(-c2ccc3c(c2)OCCO3)o1)c1ccc(S(=O)(=O)N2CCCCC2)cc1	98.0%
48	O=C(c1ccc(S(=O)(=O)N2CCOCC2)cc1)N(Cc1ccccc1)c1nnc(C23CC4CC(CC(C4)C2)C3)s1	4.8%
49	COc1cccc(NC2=C(Cl)C(=O)N(C3CCS(=O)(=O)C3)C2=O)c1 (configuration not stated)	-0.5%
50	CCOC(=O)c1nn(-c2ccc(C)cc2)c(=O)c2c(NC(=O)c3cc(Cl)ccc3Cl)scc12	-9.7%
51	COc1cccc(C(=O)Nc2cccc(-c3ccc4nncn4n3)c2)c1OC	-1.4%
52	O=C(NNc1nc2c(F)cc(F)cc2s1)c1cc2ccccc2oc1=O	82.8%
53	Nc1nc(SCC(=O)Nc2cccc3ccccc23)[nH]c(=O)c1NC(=O)c1ccc(F)c(F)c1	-14.0%
54	O=C(Nc1cc2c3c(c1)CCC(=O)N3CCC2)c1ccc([N+](=O)[O-])cc1	4.8%
55	COc1ccc(C)cc1-n1c(-c2ccccc2)cn2c3c(=O)n(CC(C)=O)c(=O)n(C)c3nc12	-4.4%
56	CC(C)C(=O)Nc1nnc(-c2ccc3c(c2)OCCO3)o1	52.3µg/mL*
57	Cc1c(C)n2c(SCC(=O)Nc3nccs3)nnc2[nH]c1=O	-8.1%
58	CC(C)CCN1C(=O)CCc2cc(NS(=O)(=O)c3ccc(F)c(Cl)c3)ccc21	10.8%
59	CCc1ccc(S(=O)(=O)N(C)C2CCS(=O)(=O)C2)cc1 (configuration not stated)	2.9%
60	COc1ccc(C(=O)Nc2cccc3c2C(=O)N(C)C3=O)cc1	-6.4%

# (further entries)
No.	canonical_smiles	Mtb H37Rv
61	Cc1ccccc1-n1c(SCC(=O)NCC2CCCO2)nc2c([nH]c3ccccc32)c1=O (configuration not stated)	7.7%
62	CC1(C)CC(=O)C2=C(C1)Nc1nc(SCc3ccccc3F)[nH]c(=O)c1C2c1ccccn1 (configuration not stated)	3.2%
63	COC(=O)c1ccc(COc2cccc3c2CCN(Cc2ccc(F)cc2)C3=O)o1	50.0%
64	CCOC(=O)c1c(NC(=O)C(C)Sc2ncnc3ccccc23)sc2c1CCCCC2 (configuration not stated)	-8.3%
65	Fc1ccc(-c2nnc3c4cc5c(cc4n(Cc4ccccc4F)cc2-3)OCCO5)cc1	31.4%
66	CCOc1ccc(CC(=O)Nc2cc(-c3cn4nc(OC)ccc4n3)ccc2F)cc1	3.1%
67	Fc1ccc(-c2nnc3c4cc5c(cc4n(Cc4ccccc4F)cc2-3)OCO5)cc1	13.0%
68	O=C(NCCc1c[nH]c2ccccc12)C(=O)NCC(c1ccco1)N1CCOCC1 (configuration not stated)	-1.8%
69	Cc1cc(NCCCn2ccnc2)n2c(nc3ccccc32)c1C#N	-1.4%
70	C=CCn1c(=O)c2c(nc3n(CCc4ccccc4)c(C)cn23)n(C)c1=O	-5.8%
71	CS(=O)(=O)c1ccc(-c2nnc(NC(=O)c3ccc(C#N)cc3)o2)cc1	0.8%
72	CC1CCN(C(=O)CCCN2C(=O)/C(=C/c3ccc4c(c3)OCO4)SC2=S)CC1	-6.0%
73	O=C(Nc1nnc(-c2cccnc2)o1)c1cccc(Cl)c1	?
74	COc1ccc(OC)c(NC(=O)c2c[nH]c(=O)n(-c3ccc(F)cc3)c2=O)c1	1.1%
75	COc1cc(OC)cc(C(=O)N(Cc2ccccc2)c2nnc(C34CC5CC(CC(C5)C3)C4)s2)c1	22.2%
76	CCc1ccc(-c2csc(NC(=O)CN3C(=O)CCC3=O)n2)cc1	-0.7%
77	CC(C)NC(=O)CSc1nc(N)c(NC(=O)c2ccc(Cl)cc2)c(=O)[nH]1	-3.0%
78	COc1ccccc1-n1c(SCC(=O)Nc2ccc(C)cc2C)nc2c(c1=O)SCC2	2.5%
79	COc1cc(OC)cc(C(=O)Nc2nc3ccc4sc(C)nc4c3s2)c1	5.2%
80	CCC(CC)C(=O)Nc1c(C(=O)Nc2cccc(F)c2)oc2ccccc12	6.7%
81	Cc1ccc(NC(=O)CSc2nnc(-c3ccco3)n2-n2cccc2)cc1	4.5%
82	Cc1ccc(-c2[nH]c(-c3ccccc3)nc2SCC(=O)Nc2ccc3c(c2)OCO3)cc1	?
83	COc1ccccc1CNC(=O)NC1CC(=O)N(c2cccc(F)c2)C1 (configuration not stated)	-1.6%
84	Cc1cc(OC(=O)c2cccc3ccccc23)c([N+](=O)[O-])c(=O)[nH]1	72.3%
85	Cc1cccc(-c2nnc(NC(=O)c3cc(Cl)ccc3Cl)s2)c1	-3.6%
86	CCOc1ccc(-c2nnc3c4cc(OC)ccc4n(Cc4ccccc4)cc2-3)cc1	17.7%
87	Cc1cc(C)c(NC(=O)CSc2nc(N)c(NC(=O)c3ccc(F)c(F)c3)c(=O)[nH]2)c(C)c1	-4.8%
88	COc1cc(-c2cc(=NC(Cc3cnc[nH]3)C(=O)O)c3cc(Cl)c(C)cc3o2)ccc1O (configuration not stated)	9.9%
89	COc1ccc(NC(=O)c2oc3ccccc3c2NC(=O)COc2ccc(OC)cc2)cc1	5.4%
90	Cc1nnc(SCc2ccccc2F)n(N)c1=O	2.2%
91	NC1=NC(=O)C(CC(=O)Nc2ccccc2OC(F)F)S1 (configuration not stated)	-13.0%
92	O=C(Nc1ncc(Cc2ccc(Cl)c(Cl)c2)s1)c1ccco1	6.4%
93	O=C(CN1C(=O)CCC1=O)Nc1nnc(-c2ccncc2)o1	0.0%
94	O=C(Nc1nc(-c2ccccc2)c(C(=O)c2ccccc2)s1)c1ccco1	8.4%
95	COc1ccc(-n2nnc3c(=O)n(Cc4cccc(F)c4)cnc32)cc1OC	4.4%
96	CCCn1cc(C(=O)Nc2ccccc2F)c2nn(-c3ccccc3)c(=O)c-2c1	-4.3%
97	CCCOc1cccc(C2/C(=C(/O)c3ccncc3)C(=O)C(=O)N2CCCN(C)C)c1 (configuration not stated)	-9.6%
98	O=C(Nc1cc(Cl)cc(Cl)c1)c1cnc2n(c1=O)CCS2	2.8%
99	O=C1CCc2cc(NS(=O)(=O)c3ccc([N+](=O)[O-])cc3)cc3c2N1CC3	-8.0%
100	NC(=O)Cn1nnc2cc3nc4ccccc4nc3cc21	64.4%
101	CCOC(=O)/C(C#N)=C\c1ccc(O)c(OC)c1	1.8%
102	COC(=O)c1ccc(Cn2cnc3c(nnn3-c3cc(C)cc(C)c3)c2=O)o1	3.0%
103	O=C(CC(c1ccccc1)c1ccccc1)Nc1c(C(=O)Nc2ccc(F)c(Cl)c2)oc2ccccc12	51.2%
104	Fc1cccc2sc(N3CCCCC3)nc12	5.4%
105	COc1ccc(OC)c2[nH]c(=O)c(CCNC(=S)Nc3ccccc3F)cc12	0.9%
106	Cc1ccc(NC(=O)c2cc(-c3ccccc3)nc3ccccc23)c(C(=O)c2ccccc2)c1	4.8%
107	COc1cccc(NC(=O)C(=O)NCCC2CCCCN2S(=O)(=O)c2ccccc2)c1 (configuration not stated)	1.5%
108	Cc1ccc2nc(NC(=O)CSc3nnc(Cn4c(=O)sc5ccccc54)n3C)sc2c1	-0.8%
109	Cc1nc2ccccn2c1/C(O)=C1\C(=O)C(=O)N(CCN(C)C)C1c1ccncc1 (configuration not stated)	-1.7%
110	O=C(NCCCN1CCCC1=O)C(=O)Nc1ccc(Cl)cc1	-4.7%
111	CC(=O)c1ccc(S(=O)(=O)NC2CC(=O)N(c3ccc(F)cc3)C2)cc1 (configuration not stated)	1.3%
112	O=C(CN1C(=O)CCC1=O)Nc1nc(-c2ccc(Cl)cc2Cl)cs1	-6.7%
113	CC(C)N1C(=O)/C(=C2/C(=O)N(CC(=O)Nc3ccccc3F)c3ccccc32)SC1=S	-7.3%
114	COCCCNC(=O)CSc1nc2ccc(N3CCOCC3)cc2c(=O)n1CCc1ccccc1	9.2%
115	COc1ccc(OC)c(NC(=O)c2oc3ccccc3c2NC(=O)Cc2cccs2)c1	3.0%
116	CCOc1ccc(C(=O)Nc2c(N)nc(SCc3ccc(F)cc3)[nH]c2=O)cc1	-4.5%
117	CCOC(=O)COc1cccc2c(=O)n(CC(=O)Nc3ccc(F)cc3)ccc12	-4.2%
118	COc1ccc(C(=O)N=Nc2c(O)[nH]c3ccccc23)cc1	-11.7%
119	Cc1[nH]c2ccccc2c1C(=O)CSc1ncnc2sc3c(c12)CCCC3	-2.3%
120	CCOC(=O)c1c(NC(=O)CSc2nnc(-c3ccncc3)o2)sc2c1CCCC2	-14.4%
